Screens from PubChem.
Sa ugtP lethal – growth inhibition of ugtP-null S. aureus, primary screen, RN4220 ugtP deletion, OD600; actives 0.54% (n = 330,000); growth inhibition, % (concentration not given with the values); 16 h; some inactives read as strong as hits;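 active = z-score under -3 and OD600 up to 0.15 on both plates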;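 also: plate controls were untreated wells for no effect and antibiotic for full effect; wells of about 80 µL received 100 nL stock; the first replicate is given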
RN4220 kill – growth inhibition of S. aureus RN4220, primary screen, OD600; AID 1259311, 2017; 16 h; actives 0.33% (n = 330,000); inhibition, % (concentration not given with the values);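 active = z-score of -3 or lower and OD600 up to 0.18 on both plates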;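 also: plate controls were untreated cells for no effect and reference antibiotic for full effect; stock transfer was 100 nL into about 80 µL; one replicate is shown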
Mtb hypoxia rep – PubChem AID 1159583; M. tuberculosis hypoxia-regulated fluorescent reporter, fluorescence; fluorescence inhibition, % (test concentration not listed); actives 0.1% (n = 300,000);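 active = 35 to 45% if threefold the growth effect, above 45% if 1.5-fold the growth effect; inactive = the rest, general growth blockers included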;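 also: wells of about 50 µL received 100 nL stock; 0% = vehicle wells and 100% = reference inhibitor wells; whole bacteria with a GFP reporter of the hypoxia response; strong numbers were not always called active; many hits fall short of the cut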
BJeLR lethal – MLPCN primary cell-based screen for lethality selective to Ras in HRASV12 cells | BJeLR (HRASV12) viability, CellTiter-Glo ATP luminescence, 48 h; reference of the scale not given here | inhibition, % (test concentration not listed) | actives 0.17% (n = 300,000) | AID 1554, 2009;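 active = replicate mean above 50%; inconclusive = above 50% but judged a plate artefact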;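 also: 50 nL library stock added to about 25 µL; numbers are from one replicate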
PrP 5UTR inh – inhibition of PrP 5' UTR reporter expression | cell-based PrP 5' UTR mRNA reporter, plate reader | inhibition, % (no concentration beside the values) | actives 0.35% (n = 340,000) | AID 488862, 2010;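 active = every replicate at 50% or more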;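 also: 0 = median of the neutral control wells; tested in H4 reporter cells; numbers are from one replicate; inactives centre near -14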
Autofluor counter – counter-screen for toxin protease inhibitors: compound fluorescence. fluorescence intensity (test concentration not listed). compound autofluorescence counterscreen, microsphere flow cytometry; stronger effect = higher value. actives 3.1% (n = 360,000);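 active = at least 3 SD above the mean of all compounds, about 16000 in these data; inconclusive = too few beads counted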;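 also: 100 nL of 1 mM stock went into each well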
Mtb hypoxia rep growth – recorded beside Mtb hypoxia rep, whose call it bears; growth inhibition, %; measured here: M. tuberculosis growth (absorbance);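 0% = vehicle and 100% = reference antibiotic; read after six days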
* hit, by the source's call; ? = inconclusive; nt = not tested or not shown.

1: O=C(NNC(=O)C1CCCN(c2ncccn2)C1)c1ccc(F)cc1 (stereo not given)
2: CC(=O)c1c(C)[nH]c(C(=O)NCCCN2CCCC2)c1C
3: O=C(CSc1nc2ccccc2c(=O)n1-c1ccc(SC(F)F)cc1)Nc1ccc(N2CCOCC2)cc1
4: O=C(CSc1ncccc1C(=O)O)NC12CC3CC(CC(C3)C1)C2
5: COc1ccc(C2OC(=O)c3ccccc3S2)cc1 (stereo not given)
6: Cc1ccc(C(=O)CSc2nnc(CNc3ccc(C)cc3C)n2Cc2ccco2)cc1
Screen / compound no.,1,2,3,4,5,6
Sa ugtP lethal,-7,-1,0,-2,0,-6
RN4220 kill,0.3,2.2,6.4,6.8,3.1,0.7
Mtb hypoxia rep,1,3,5,7,6,7
Mtb hypoxia rep growth,14,8,3,0,7,-4
BJeLR lethal,10,10,1,-4,-6,-2
PrP 5UTR inh,-23,-8,-1,-35,-10,-11
Autofluor counter,8603,4673,2275,4596,5565,4329

7: N#Cc1ccc(Cl)cc1NC(=O)COC(=O)c1cccc(S(=O)(=O)N2CCOCC2)c1
8: COC(=O)C(Nc1nccs1)(OC)C(F)(F)F (stereo not given)
9: COCCNC(=O)C(=O)N/N=C/c1ccc(C(=O)OC)cc1
10: COC(=O)C(CC(C)C)N(Cc1ccccc1)S(=O)(=O)N(Cc1ccc(OC)cc1)C(CC(C)C)C(=O)OC (stereo not given)
11: CC(=O)OC1CSc2nc3ccccc3n2C1 (stereo not given)
12: CC(=O)c1cccc(NC(=O)Nc2ccc(C(=O)N3CCCC3)cc2)c1
Screen / compound no.,7,8,9,10,11,12
Sa ugtP lethal,11,7,nt,-8,7,1
RN4220 kill,2.5,36,nt,-0.7,-1.1,0.3
Mtb hypoxia rep,10,0,nt,3,4,1
Mtb hypoxia rep growth,11,1,nt,9,-8,10
BJeLR lethal,nt,0,-18,nt,-5,8
PrP 5UTR inh,nt,0,-26,nt,-19,2
Autofluor counter,nt,9667,2053,nt,?,22040*

13: Cc1ccc(N2CC(C(=O)Nc3nnc(SCC(=O)NCC4CCCO4)s3)CC2=O)cc1 (stereo not given)
14: Cc1ccccc1-c1nc2ccccc2c(=O)n1C1CCS(=O)(=O)C1 (stereo not given)
15: Brc1ccc(OCCCOc2cccc3cccnc23)cc1
16: CCC(C)NC(=O)c1ccc(CSCc2cccc(F)c2)o1 (stereo not given)
17: Cc1[nH]c2ccccc2c1C=NNC(=O)CNC(=O)c1ccco1
18: Cc1ccc(-c2nnc(SCC(=O)N/N=C/c3c(C)nn(-c4ccccc4)c3C)n2-c2ccc(C)cc2)cc1
Screen / compound no.,13,14,15,16,17,18
Sa ugtP lethal,8,14,14,3,-2,nt
RN4220 kill,6.8,3.6,24,2.6,1.1,nt
Mtb hypoxia rep,-7,16,4,2,1,nt
Mtb hypoxia rep growth,6,6,-2,4,-2,nt
BJeLR lethal,-2,-4,-7,16,nt,-10
PrP 5UTR inh,-19,-16,-31,-33,nt,-22
Autofluor counter,5865,8332,3576,11098,nt,2153

From entry 12 as far as 15, copied from above:
12: CC(=O)c1cccc(NC(=O)Nc2ccc(C(=O)N3CCCC3)cc2)c1
13: Cc1ccc(N2CC(C(=O)Nc3nnc(SCC(=O)NCC4CCCO4)s3)CC2=O)cc1 (stereo not given)
14: Cc1ccccc1-c1nc2ccccc2c(=O)n1C1CCS(=O)(=O)C1 (stereo not given)
15: Brc1ccc(OCCCOc2cccc3cccnc23)cc1
Screen / compound no.,12,13,14,15
Sa ugtP lethal,1,8,14,14
RN4220 kill,0.3,6.8,3.6,24
Mtb hypoxia rep,1,-7,16,4
Mtb hypoxia rep growth,10,6,6,-2
BJeLR lethal,8,-2,-4,-7
PrP 5UTR inh,2,-19,-16,-31
Autofluor counter,22040*,5865,8332,3576

More results.
19: Cc1cc(C)cc(NC(=O)CSc2nc3c(c(=O)n2C)SC(C)C3)c1 (stereo not given)
20: Cc1nn(C)cc1/C=N\NC(=O)Cc1ccc([N+](=O)[O-])cc1
21: COc1ccc(S(=O)(=O)Nc2ccc(F)c(F)c2)cc1C(=O)N1CCOCC1
22: COc1cc(C2/C(=C(\O)c3ccc4c(c3)OCCO4)C(=O)C(=O)N2Cc2ccco2)cc(OC)c1OC (stereo not given)
23: Cc1ccc(O)c(NC(=O)CCCC(=O)O)c1
24: COc1cc(OC)c(OC)cc1CN1CCCC(C(=O)c2sccc2C)C1 (stereo not given)
Screen / compound no.,19,20,21,22,23,24
Sa ugtP lethal,15,nt,0,-4,1,4
RN4220 kill,3.9,nt,3.5,1.9,0.8,3.9
Mtb hypoxia rep,3,nt,8,3,7,14
Mtb hypoxia rep growth,9,nt,-4,17,10,12
BJeLR lethal,11,3,-3,nt,-10,6
PrP 5UTR inh,-7,-16,-44,3,-22,-14
Autofluor counter,5663,2264,5669,6114,10014,3341

25: CC(NC(=O)CN(C)CC(=O)Nc1ccc(F)c(F)c1F)c1ccccc1 (stereo not given)
26: COc1cc(C=NNC(=O)CC2(C)OCCCO2)ccc1OCc1ccccc1
27: O=C(COc1ccccc1)NN=Cc1sc(=O)n(Cc2cccc(C(=O)O)c2)c1Cl
28: N=c1c2c3c(sc2ncn1N)CCC3
29: CC(=O)NC(CC(=O)NC1CCCc2ccccc21)c1ccccc1 (stereo not given)
30: C/C(=N\NC(=O)Cn1ccc(C(F)(F)F)n1)c1ccc2c(c1)OCO2
Screen / compound no.,25,26,27,28,29,30
Sa ugtP lethal,3,4,-4,-5,3,nt
RN4220 kill,1.3,4.3,4.9,2.9,-4.9,nt
Mtb hypoxia rep,-3,10,-8,-1,-5,nt
Mtb hypoxia rep growth,-2,7,-10,7,1,nt
BJeLR lethal,-2,nt,nt,3,2,-3
PrP 5UTR inh,-25,nt,nt,-24,-12,-20
Autofluor counter,2046,nt,nt,3047,3231,4383

31: CCC(=O)N1CCN(c2ccc(NC(=O)c3ccc(N4CCOCC4)c([N+](=O)[O-])c3)cc2)CC1
32: Cc1cc(S(=O)(=O)NCC(c2ccc3c(c2)OCO3)N2CCOCC2)ccc1F (stereo not given)
33: Cc1ccc(S(=O)(=O)CCC(=O)OCC(=O)Nc2cc(S(=O)(=O)N3CCOCC3)ccc2Cl)cc1
34: C=CCOc1ccc2c(CC)cc(=O)oc2c1C
35: C=CCc1ccccc1OCC(O)CN1CCOCC1 (stereo not given)
36: Cc1ccc(C2/C(=C(/O)c3cnn(-c4ccccc4)c3C)C(=O)C(=O)N2CCN2CCOCC2)o1 (stereo not given)
Screen / compound no.,31,32,33,34,35,36
Sa ugtP lethal,-6,nt,2,5,-3,-9
RN4220 kill,2.3,nt,2.8,10,0.7,-2.3
Mtb hypoxia rep,-1,nt,4,5,-10,nt
Mtb hypoxia rep growth,-2,nt,-2,1,6,nt
BJeLR lethal,8,-1,nt,1,1,-6
PrP 5UTR inh,-2,-13,-15,-23,-21,-25
Autofluor counter,6340,?,3906,2418,3221,2739

37: CCOc1ccc2nc(C)cc(Nc3ccc4c(c3)OCCO4)c2c1
38: S=C(Nc1ccc(Oc2ccc(NC(=S)NC3CCCCC3)cc2)cc1)NC1CCCCC1
39: Cc1ccc(C(=O)NCC(=O)NCCCc2ccccc2)s1
40: Cc1ccc(S(=O)(=O)Nc2cccnc2)cc1
41: CCOC(=O)c1ccc2c(c1)N(Cc1ccccc1C)C(=O)c1ccccc1S2=O (stereo not given)
42: CC(C)(C)n1nnnc1C(c1ccccc1F)N1CCN(C2CCCC2)CC1 (stereo not given)
Screen / compound no.,37,38,39,40,41,42
Sa ugtP lethal,0,-7,4,4,13,1
RN4220 kill,11,0.2,1.3,5.9,2.7,-1.0
Mtb hypoxia rep,nt,-1,5,6,5,nt
Mtb hypoxia rep growth,nt,-4,8,0,8,nt
BJeLR lethal,10,-2,-1,-10,-1,1
PrP 5UTR inh,-12,-6,-21,-14,-21,4
Autofluor counter,3317,2049,5031,3818,22107*,2225

43: Cc1c(C(=O)Nc2ccc3c(c2)OCCO3)sc2ncnc(N3CCCCC3C)c12 (stereo not given)
44: CCCC(=O)NC(=S)Nc1cccc2c(O)cccc12
45: O=C1NC(c2ccc(O)cc2)Nc2ccccc21 (stereo not given)
46: COc1ccc(CN2C(=O)c3ccccc3C2C(=O)NCC2CCCO2)c(OC)c1 (stereo not given)
47: CCOC(=O)C1CCN(c2nc(-c3ccccc3)nc3c2oc2ccccc23)CC1
48: CCn1c(SCc2ccccc2)nnc1-c1cccnc1
Screen / compound no.,43,44,45,46,47,48
Sa ugtP lethal,3,73,8,1,10,0
RN4220 kill,3.3,-5.0,-0.7,3.2,5.1,1.3
Mtb hypoxia rep,-14,6,8,nt,1,9
Mtb hypoxia rep growth,4,6,2,nt,5,5
BJeLR lethal,6,4,-8,-4,0,0
PrP 5UTR inh,6,-3,-55,-25,-2,-8
Autofluor counter,3998,4346,3637,4934,nt,2533

49: CCC1(c2ccccc2)C(=O)N(C(=O)OC(C)(C)C)N1C(=O)OC(C)(C)C (stereo not given)
50: CCCCCSc1nnc(-c2ccccc2NC(C)=O)c(=O)[nH]1
51: CC(C)C(=O)Nc1ccc(N2CCCC2)cc1
52: COc1ccc(NC(=S)N2CCCCC2c2cccnc2)cc1 (stereo not given)
53: CCc1ccccc1OCC(=O)Nc1ccc(S(N)(=O)=O)cc1
54: O=C(Nc1ccncc1)Nc1ccc(Br)cc1Cl
Screen / compound no.,49,50,51,52,53,54
Sa ugtP lethal,-1,2,-11,4,0,0
RN4220 kill,-0.2,0.8,4.9,2.5,1.7,-6.1
Mtb hypoxia rep,-11,2,nt,17,-5,-1
Mtb hypoxia rep growth,-6,9,nt,5,0,4
BJeLR lethal,-12,-3,0,-4,4,7
PrP 5UTR inh,7,-16,-17,-82,-12,-4
Autofluor counter,4040,4463,2257,5152,5993,5478

55: O=c1[nH]c(-c2ccccc2)ncc1Oc1ccccc1
56: CC1CCN(C(=O)CCc2nnc3ccc(N4CCC5(CC4)OCCO5)nn23)CC1
57: CC(NC(=S)Nc1ccccc1Cl)C(c1ccccc1)N1CCOCC1 (stereo not given)
58: Cc1cc(C)cc(OCc2nnc(SCC(=O)c3ccc(Br)cc3)o2)c1
59: CCOc1ccc(-c2nc(CSc3nncs3)cs2)cc1OC
60: Cc1ncc(CN2CCCC(C(=O)Nc3ccc(-c4cccc(F)c4)cc3)C2)s1 (stereo not given)
Screen / compound no.,55,56,57,58,59,60
Sa ugtP lethal,1,4,11,-4,1,4
RN4220 kill,5.3,2.1,14,0.7,4.4,-4.2
Mtb hypoxia rep,4,11,19,nt,6,0
Mtb hypoxia rep growth,-1,3,0,nt,8,3
BJeLR lethal,-5,8,8,3,-3,1
PrP 5UTR inh,nt,-10,3,-21,-17,-19
Autofluor counter,3208,5597,1999,4316,?,5611

61: CCC1(C)CC(CC(=O)O)(c2ccccc2OC)CCO1 (stereo not given)
62: C=CCn1cccc(C(=O)Nc2cc(OC)c(OC)c(OC)c2)c1=O
63: O=C(NNC(=O)c1cc2ccccc2cc1O)c1cccs1
64: C=CCNC1=C(Cl)C(=O)N(c2ccccc2Cl)C1=O
65: COc1ccc(Cl)cc1NC(=O)C(C)OC(=O)c1ccc(NS(=O)(=O)c2ccc3[nH]c(=O)[nH]c3c2)cc1 (stereo not given)
Screen / compound no.,61,62,63,64,65
Sa ugtP lethal,-6,7,-2,0,-4
RN4220 kill,4.1,1.5,5.7,-1.9,-8.3
Mtb hypoxia rep,nt,13,4,-4,1
Mtb hypoxia rep growth,nt,-1,-2,0,6
BJeLR lethal,-3,-10,-3,-1,15
PrP 5UTR inh,-23,-5,-34,-9,-22
Autofluor counter,2148,3306,3567,8649,8878
